From PubChem
HPGD block: qHTS Assay for Inhibitors of HPGD (15-Hydroxyprostaglandin Dehydrogenase); 15-hydroxyprostaglandin dehydrogenase [NAD(+)] (Homo sapiens), P15428; purified HPGD, NADH fluorescence kinetic, PGE2 substrate; Potency, µM, without a hit: at the highest dose activity change, negative = inhibition, usual class: inhibitors; 150,000 tested, 4.3% active; AID 894, 2007; active = well fitted inhibition curve with a large enough effect (not every such curve was filed as active); inconclusive = small, poorly fitted or top-dose-only effect, or another doubt; inactive = no such curve, though single readings can be large or run the other way;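 further: top concentration of the series not given in the record; plate controls included wells without enzyme; inactives centre near -10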
Target sequence (P15428 whole entry, looked up): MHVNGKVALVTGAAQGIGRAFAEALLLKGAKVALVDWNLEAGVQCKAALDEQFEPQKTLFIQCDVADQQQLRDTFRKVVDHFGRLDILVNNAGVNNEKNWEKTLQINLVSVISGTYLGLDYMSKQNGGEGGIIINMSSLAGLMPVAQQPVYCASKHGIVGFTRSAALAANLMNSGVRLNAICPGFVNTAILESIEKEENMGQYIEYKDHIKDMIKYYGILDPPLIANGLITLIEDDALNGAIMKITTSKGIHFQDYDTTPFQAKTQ
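20 nM HPGD preincubated 15 min at room temperature with compound in 50 mM Tris-HCl pH 8, 0.01% Tween 20. Started with 1 mM NAD+ and 30 uM prostaglandin E2; NADH fluorescence (360/450 nm) read 5 times over 30-s intervals, last minus first.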
Starred values were filed as active, the others as inactive; ? = inconclusive; & = joins results of further samples. On the % scale 0 is the no-effect control and ±100 the full control effect; potency means the concentration at half of the fitted maximal effect. Only part of the results is shown; the hit share may differ from the screen's.

canonical_smiles	HPGD block
Nc1[nH]c(=S)[nH]c(=O)c1-c1ccccc1	25µM*
O=C(N/N=C\c1ccc(F)cc1)c1cc(OCC(F)(F)F)ccc1OCC(F)(F)F	-1%
Cc1ccc(NC(=O)c2cc(N3C(=O)C=CC3=O)ccc2N2CCOCC2)cc1Cl	1.3µM*
CCOc1ccc(N(CC(=O)NC(C)(C)C)S(=O)(=O)c2c(C)noc2C)cc1	-13%
O=C(CCSc1ccccc1)NCCN1CCOCC1	-10%
CCOC(=O)C1CCN(c2cc(=O)n(-c3ccc(OC)cc3)c(=O)[nH]2)CC1	-5%
CN(C)S(=O)(=O)c1cccc(C(=O)N(Cc2ccc(F)cc2)Cc2ccco2)c1	-6%
CCCn1c(C)cc(C(=O)COC(=O)c2ccc[nH]c2=O)c1C	-14%
CCOC(=O)/C(N=Nc1ccc(F)cc1)=C(/O)c1ccc([N+](=O)[O-])cc1	-4%
COc1ccc(C2CC(c3ccc(Br)cc3)=NN2C(=O)c2cccnc2)cc1 (stereo not given)	-12%
CCN=C1S/C(=C\c2cc(OCC)c(O)cc2Br)C(=O)N1CC	-16%
NC(=O)COC(=O)c1ccc(Oc2ccccc2)cc1	-6%
CCOC(=O)c1cc(CC)sc1NC(=O)C(c1ccccc1)c1ccccc1	-23%
COc1ccc(/C(N)=N/OC(=O)C2CCC(=O)N2S(=O)(=O)c2ccc(C)cc2)cc1 (stereo not given)	-12%
Cc1cccc(N2C(=O)C3C4CC(C(Br)C4Br)C3C2=O)n1 (stereo not given)	0%
N/C(=N\OC(=O)/C=C/c1ccc(Br)cc1)c1ccccn1	-7%
CC(=O)N(CC1CCCO1)c1nnc(-c2cnccn2)s1 (stereo not given)	-17%
O=C(Nc1cnn(Cc2ccccc2)c1)NC12CC3CC(CC(C3)C1)C2	-15%
NS(=O)(=O)c1ccc(CCNC(=O)CCCC2=NS(=O)(=O)c3ccccc3N2)cc1	-2%
COCCNC(=O)Cn1c(=O)n(Cc2ccc(C(=O)NCc3ccco3)cc2)c(=O)c2ccccc21	?
CCN(CC)c1nc(OC)nc(-n2nnc(C(C)=O)c2C)n1	-18%
Cc1ccc(C)c(/C(O)=C2\C(=O)C(=O)N(Cc3cccnc3)C2c2cccnc2)c1 (stereo not given)	25µM*
CS(=O)(=O)c1nc(-c2ccccc2)cc(-c2ccccc2)c1C#N	?
Cc1cc(NC(=O)c2ccc3c(c2)C(=O)N(CCC(C)C)C3=O)no1	0%

A section of the results above, for reference:
canonical_smiles	HPGD block
CS(=O)(=O)c1nc(-c2ccccc2)cc(-c2ccccc2)c1C#N	?
Cc1cc(NC(=O)c2ccc3c(c2)C(=O)N(CCC(C)C)C3=O)no1	0%

More records follow.
canonical_smiles	HPGD block
O=C(CSc1nc(-c2ccco2)cc(C(F)(F)F)n1)Nc1ccc(C(=O)N2CCCCC2)cc1	0.56µM*
CC(NCC(O)COCc1cccs1)C1CC2CCC1C2 (stereo not given)	-10%
O=C(Nc1cccc(F)c1)N1CC2(CCN(C(=O)c3ccco3)CC2)C1	-10%
O=C(c1ccccc1)N1CCN(C(=O)c2ccc(OC(F)(F)F)cc2)CC1	-3%
O=C(CCNC(=O)Cn1ccc2ccccc2c1=O)NCCc1ccc(Cl)cc1	-9%
COCCCNC(=S)NNC(=O)Cn1nc(C)c(Br)c1C	-6%
O=C(Nc1ccon1)C(Sc1ccccc1)c1ccccc1 (stereo not given)	-5%
CSc1cccc(NC(=O)CCC(=O)O)c1	-9%
CCn1c(CNC(=O)c2ccc(OC)cc2)nnc1SC	-1%
COc1cc(/C=N/NC(=O)CN2CCCCC2)ccc1OCc1ccccc1	-23%
CCCOc1ccc(Cc2nc(N)nc(N)n2)cc1	-12%
CCn1c(SCC(=O)Nc2ccc(OC)c(OC)c2)nnc1-c1c[nH]c2ccccc12	-8%
CCCN(N=Nc1cccc([N+](=O)[O-])c1)c1cccc([N+](=O)[O-])c1	-14%
O=C(NCC(=O)N(Cc1ccco1)C(C(=O)NC1CCCCC1)c1cccnc1)c1cccs1 (stereo not given)	3%
COCCN(CCOC)c1nc(C)nc2c1nc(-c1ccccc1)n2CCN(C)C	?
COc1ccc(OCCCON2C(=O)c3ccccc3C2=O)cc1	-20%
CNC(=O)COC(=O)c1cc(NC(=O)c2ccco2)c(OC)c(OC)c1	-5%
O=C(O)CSc1ncnc2nc[nH]c12	0%
O=C(NN1CCOCC1)c1cc(-c2ccccc2)nc2ccccc12	-2%
COc1cccc(CNc2ncnc3cc(OC)c(OC)cc23)c1	-9%
CC1(C)COC(/C=C/c2ccc([N+](=O)[O-])cc2)=N1	-9%
CN(C)c1ccc(/C=N/NC(=O)c2ccco2)cc1	-8%
N/C(=N\OC(=O)CCC1CCCCC1)c1cccc([N+](=O)[O-])c1	-6%
COc1ccc(CNC(=O)Nc2cccs2)cc1OC	-5%
COCn1c(-c2ccc(OC)cc2)nc2ccccc21	-30%
CN(C#N)c1nc(Cl)nc(Nc2cccc(Cl)c2)n1	-21%
COc1ccc(-n2cnc(N)c2C(=O)c2cccc([N+](=O)[O-])c2)cc1	-11%
Cc1nc2ccc(NC(=O)CCS(=O)(=O)c3ccccc3)cc2s1	-15%
CCC(C)(C)NC(=O)C(c1ccncc1)N(Cc1ccc(C)cc1)C(=O)c1csnn1 (stereo not given)	-6%
O=C(Cn1c(=O)n(CC(=O)NCc2ccccc2)c2ccccc21)NCc1ccccc1	-10%
Cc1cccc2[nH]c3c(N4CCN(C(=O)c5ccco5)CC4)ncnc3c12	?
CCCCCCCC/C=C\CCCCCCCC(=O)N[C@@H](CO)Cc1ccc(O)cc1	-8%
CC(=O)Nc1ccc(-c2cn3cc(C)ccc3n2)cc1	?
COc1ccc(C(=O)C(OC(=O)CNC(=O)c2ccco2)c2ccccc2)cc1 (stereo not given)	-9%
COc1cccc(NC(=O)c2cc(CN3C(=O)c4ccccc4C3=O)ccc2OC)c1	-20%
Clc1ccccc1-c1nc2ccccc2c2nncn12	-23%
Cc1nnc2c(Oc3ccccc3)nc3ccccc3n12	-21%
O[C@@](CCN1CCCCC1)(c1ccccc1)[C@@H]1C[C@H]2C=C[C@@H]1C2	-2%
Cc1nc2ccccc2c(=O)[nH]1	-16%
O=C(CCn1c(=O)c2ccccc2n(CC(=O)NC2CCCC2)c1=O)NCc1ccco1	-14%
N#Cc1c(NC(=O)CSc2nnc(-c3ccco3)n2-c2ccccc2)sc2c1CCC2	-13%
COC(=O)CSc1nnc(-c2ccco2)n1-c1ccc(C)cc1	-11%
COc1ccc(C2CC(=O)c3c(O)cc(O)cc3O2)cc1O (stereo not given)	?
NC(=O)c1nsc(C(=O)N(CC(=O)NCc2ccc3c(c2)OCO3)C2CCCCC2)c1N	-18%
CCOC(=O)C(NC(C)=O)(Nc1ccc(S(=O)(=O)Nc2cc(C)nc(C)n2)cc1)C(F)(F)F (stereo not given)	4%
COc1ccc(NC(=O)C2OC3OC(C)(C)OC3C3OC(C)(C)OC23)cc1 (stereo not given)	-13%
Cc1c(NC(=O)/C(C#N)=C/c2ccc(-c3ccc(Cl)cc3)o2)c(=O)n(-c2ccccc2)n1C	-19%
Cc1sc2nc3c(SC(C)C(=O)O)cc(C(=O)c4ccccc4O)cn3c(=O)c2c1C (stereo not given)	-21%
COc1ccc(NS(=O)(=O)c2ccc(OC)c(OC)c2)cc1OC	-7%
O=C(CSc1nc(-c2ccco2)cc(C(F)(F)F)n1)Nc1ccc2c(c1)OCO2	-11%
Cc1ccc(OCc2nnc(SCC(=O)N3c4ccccc4Sc4ccc(Cl)cc43)o2)cc1	-8%
Nc1ncnc2c1ncn2C1CCC(CO)C(O)C1 (stereo not given)	-2%
COc1cccc(-c2nnc(NC(=O)C3CCCCC3)o2)c1	-6%
O=C(NCc1ccc(Cl)cc1)c1cc2c(nc3sccn32)s1	-26%
O=C(CN1CCN(c2ccccc2)CC1)Nc1nccs1	5%
Oc1ccc(CNc2ccc(F)cc2)c2cccnc12	-18%

New compounds follow:
canonical_smiles	HPGD block
Clc1ccccc1Nc1ncnc2c1nnn2Cc1ccccc1	22µM*
Clc1ccc(-c2nc3ncccn3c2Nc2ccc3c(c2)OCO3)cc1	-5%
COc1ccc(Cl)cc1NC(=O)C1CC(=O)N(c2ccc(F)cc2)C1 (stereo not given)	0%
CCN(CC)C(NC(=O)Cc1ccccc1)C(Cl)(Cl)Cl (stereo not given)	14µM*
COc1ccc(OCc2nc(N)nc(Nc3ccc(C)cc3)n2)cc1	-2%
CCCCN(C(=O)NC(=O)C1=C(N2CCOCC2)/C(=C/c2ccccc2)CC1)S(C)(=O)=O	?
Cc1cc(N2CCN(c3ccccc3Cl)CC2)n2cc(-c3ccccc3)nc2n1	?
CC1(C(=O)NCCc2c[nH]c3ccccc23)C=CCN1C(=O)c1ccccc1 (stereo not given)	-13%&-5%
CCNc1nc(NC(C)C)nc(ON=C(C)C)n1	-1%
Cc1c(C(=O)OCC(=O)c2ccc3c(c2)OCCO3)oc2ccccc12	-11%
CCOC(=O)N1CCC(NC(=O)Cn2c3c(c(-c4ccccc4Cl)cc2=O)CCC3)CC1	-25%
CCOC(=O)c1c(C)[nH]c(C(=O)COC(=O)c2cnc(C)cn2)c1C	-11%
COC(=O)[C@@]1(Cc2ccc(F)cc2)[C@H]2c3cc(C(=O)N4CCCC4)n(CCc4ccc(OC)c(Br)c4)c3C[C@H]2CN1C(=O)c1ccccc1	-8%
Cc1csc(NC(=O)CSc2nnnn2C)n1	-8%
CCOc1cc(C(=O)OCC(=O)Nc2cc(C)on2)cc(OCC)c1OCC	-13%
S=C(NCCSCc1ccccc1Cl)Nc1ccccc1	-24%
CCCNC(=O)c1cccc(Cn2cc(Br)c([N+](=O)[O-])n2)c1	-2%
COC(=O)c1ccccc1NC(=O)c1cnn2c(C(F)F)cc(C3CC3)nc12	-27%
CCOC(=O)c1nnn(-c2nonc2-n2cccc2)c1CN1CCC(C)CC1	-17%
C=C1CSc2nc3ccccc3c(=O)n21	?
Cc1cn([C@H]2C[C@@H](N=[N+]=[N-])[C@@H](CO)O2)c(=O)[nH]c1=O	-9%
Cc1c(Br)c([N+](=O)[O-])nn1CC(=O)Nc1sc2c(c1C(=O)OC(C)C)CCC(C)C2 (stereo not given)	-2%
Cc1cc(C)c2c3c(sc2n1)C(c1ccccc1)C(C#N)=C(N)O3 (stereo not given)	-23%
CC1(C)CC(=O)c2c(O)cc(O)cc2O1	-17%
CCOc1ccc(-c2nn(-c3ccccc3)cc2/C=C2\SC(=S)N(Cc3ccco3)C2=O)cc1	-7%
Cc1ccccc1NC(=S)Nc1cccc([N+](=O)[O-])c1	-3%
Oc1c(CN2CCOCC2)ccc(CN2CCOCC2)c1O	-5%
O=C(CSc1nc2c([nH]c3ccccc32)c(=O)n1-c1ccc(F)cc1)NCc1ccco1	?
CN1CCN(c2cc(=O)n(-c3ccc(Cl)cc3)c(=O)[nH]2)CC1	-7%
COc1ccc(NC(=O)CSc2nnc(CN3CCOCC3)n2-c2ccccc2)cc1Cl	-6%
O=C(NCc1nc2ccccc2[nH]1)c1cccc(S(=O)(=O)N2CCOCC2)c1	-9%
O=C(NC1CCCc2ccccc21)C1CCN(S(=O)(=O)N2CCCCCC2)CC1 (stereo not given)	-6%
Fc1ccc(-c2nn3c(C4COc5ccccc5O4)nnc3s2)cc1 (stereo not given)	28µM*
O=C(O)c1ccccc1C(=O)OCc1ccccc1	-11%
CC(=O)Nc1ccc(S(=O)(=O)Oc2cccc(N3C(=O)C4CCCCC4C3=O)c2)cc1 (stereo not given)	-13%
Clc1ccccc1C(Nc1cnccn1)Nc1cnccn1	?
COc1ccc(N2C(=O)CC(Cc3ccccc3)C2=O)cc1 (stereo not given)	-3%
CC1OC23CCCCC2C(C#N)(C(=N)O3)C1(C#N)C#N (stereo not given)	?
Cc1cc(C)cc(-c2nnc(SCC(=O)NCc3cccs3)o2)c1	-5%
CCCCOc1ccc(NC(=O)CN2CCN(C(=O)OCC)CC2)cc1	-17%
COc1cccc(NC(=O)COC(=O)/C=C/c2ccc(Cl)cc2Cl)c1	-2%
CCCCCCCNC1=CC(=O)CC(c2ccccc2)C1 (stereo not given)	-4%
Cc1cccc(C)c1NC(=O)C(=O)NCCCN1CCOCC1	3%
O=C(NCc1ccccn1)c1ccc(Cl)cc1Cl	20µM*
CN1C(=O)c2c(sc3c2CCCC3)NC1c1ccccc1O (stereo not given)	-22%
Cc1cc(NC(=O)c2cnn3cccnc23)n(-c2ccccc2)n1	-10%

Filtered by structure, those above containing a COOH group
canonical_smiles	HPGD block
CSc1cccc(NC(=O)CCC(=O)O)c1	-9%
O=C(O)CSc1ncnc2nc[nH]c12	0%
Cc1sc2nc3c(SC(C)C(=O)O)cc(C(=O)c4ccccc4O)cn3c(=O)c2c1C (stereo not given)	-21%
O=C(O)c1ccccc1C(=O)OCc1ccccc1	-11%
